Screening results as filed in PubChem.
Cruzain inh noDet: inhibitors of Trypanosoma cruzi cruzain without detergent | purified cruzain, Z-FR-AMC fluorescence, no detergent | Potency, µM, inactives show max response, negative = inhibition, most hits filed as inhibitors | 2.3% of 200,000 active | AID 1476;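 note: plate controls were enzyme without inhibitor for no effect and buffer without enzyme for full effect; nearly all actives have a fitted effect of over 40% in size; top concentration of the series not given in the record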
Target sequence (P25779 123-467 limits assumed): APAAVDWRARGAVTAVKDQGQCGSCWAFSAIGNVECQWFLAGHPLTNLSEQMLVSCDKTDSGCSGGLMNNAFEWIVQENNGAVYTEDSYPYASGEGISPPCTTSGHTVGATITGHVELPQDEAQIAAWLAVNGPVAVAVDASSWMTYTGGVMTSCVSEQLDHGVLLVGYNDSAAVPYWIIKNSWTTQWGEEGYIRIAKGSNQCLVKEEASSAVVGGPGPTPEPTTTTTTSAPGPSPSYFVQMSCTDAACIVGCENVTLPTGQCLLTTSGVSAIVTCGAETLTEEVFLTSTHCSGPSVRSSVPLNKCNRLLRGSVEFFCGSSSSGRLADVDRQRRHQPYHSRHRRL
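Purified cruzain at 1.5 nM, pre-incubated 15 min with compound at room temperature in 100 mM sodium acetate pH 5.5, 5 mM DTT, 0.00005% Triton X-100. Reaction started with 2 uM Z-FR-AMC; AMC fluorescence increase over 60 s gives rate.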
Cruzain Triton: blocks cruzain activity in presence of Triton detergent; purified cruzain, Z-FR-AMC fluorescence, 0.01% Triton; P25779; AID 1478; 0.43% of 200,000 active; Potency, µM, for the others: max response, negative = inhibition, usual class: inhibitors;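 note: plate controls were neutral wells for no effect and buffer without enzyme for full effect; nearly all actives have a fitted effect of over 40% in size; top concentration of the series not given in the record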
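Cruzain (1.5 nM) preincubated 15 min at RT with compound in 100 mM sodium acetate pH 5.5, 5 mM DTT, 0.01% Triton X-100. Reaction started with 2 uM Z-FR-AMC; AMC fluorescence (ex 360/em 450 nm) change over 60 s gave rate.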
Lassa entry inh: Lassa virus entry inhibition; 1.2% of 300,000 active; Lassa virus pseudotype entry inhibition, cell reporter; control for the full effect not named in the record; Potency, µM (top dose mostly 37.9 µM), for inactives: at the highest dose activity change, negative = inhibition, actives largely listed as inhibitors; active means well fitted inhibition curve with a large enough effect; inconclusive means small, poorly fitted or top-dose-only effect, or effect the other way; inactive means flat fitted curve, though single readings scatter; tested in HEK293 cells; note: % is set by controls: 0 for no effect and ±100 for the full control effect; nearly all actives have a fitted effect of over 50% in size; luciferase read-out
NS1 inh: influenza NS1 inhibition. Potency, µM (top dose mostly 46.1 µM), inactives show at the top dose activity, positive = more growth. 0.4% of 270,000 active. S. cerevisiae slowed by influenza A NS1, growth recovery by OD600; active means well fitted rising curve with a large enough effect; inconclusive means small, poorly fitted or top-dose-only effect; inactive means no such curve, though single readings can be large or run the other way; note: nearly all actives have a fitted effect of over 50% in size
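Read-out: OD600 growth recovery of NS1-expressing budding yeast. Cells grown overnight at 30C in -URA glucose medium, washed, resuspended and diluted 1:100 in 2% galactose assay medium, pH 6.0. Same strain lacking NS1 served as positive control.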
StopGo reporter: lowers the luciferase signal of an FMDV 2A StopGo reporter. human cells with a luciferase reporter of 2A StopGo recoding; control for the full effect not named in the record. Potency, µM (titrated, usually from 57.9 µM), for inactives: at the highest dose signal change, negative = less light. 1.2% of 410,000 active; active = well fitted falling curve with a large enough effect; inconclusive = small, poorly fitted or top-dose-only effect; inactive = no such curve, though single readings can be large or run the other way; tested in HEK293T cells; note: % is set by controls: 0 for no effect and ±100 for the full control effect; nearly all actives have a fitted effect of over 45% in size; luciferase light after 4 h
SARS PLP yeast: inhibitors of SARS-CoV papain-like protease in yeast | 0.19% of 330,000 active | S. cerevisiae expressing SARS-CoV PLpro, growth rescue; control for the full effect not named in the record | Potency, µM (top dose mostly 32.9 µM), without a hit: at the top dose activity, positive = growth rescue | AID 485353; active means well fitted rising curve with a large enough effect; inconclusive means small, poorly fitted or top-dose-only effect; inactive means no such curve, though single readings can be large or run the other way; note: 0% is about no effect; nearly all actives have a fitted effect of over 55% in size; growth read by luminescence after 48 h
RE007 growth inh: less growth of the S. pombe RE007 Vpr strain. AID 651644. Potency, µM (doses to about 92.2 µM), for the others: top-dose activity change, negative = less growth. S. pombe RE007 Vpr strain, BacTiter-Glo ATP luminescence, 24 h; control for the full effect not named in the record. 0.21% of 360,000 active; active = well fitted falling curve with a large enough effect; inconclusive = small, poorly fitted or top-dose-only effect; inactive = no such curve, though single readings can be large or run the other way;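 note: % is set by controls: 0 for no effect and ±100 for the full control effect; nearly all actives have a fitted effect of over 50% in size; the assay follows cell death caused by Vpr and the record does not say whether a fall means rescue or toxicity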
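Fission yeast strain RE007, carrying one chromosomally integrated HIV-1 vpr copy, was seeded at OD 0.01 in PMG+AL medium with 23 nL pinned compound. After 24 h at 30 °C and 99% humidity, viability was read by BacTiter-Glo luminescence.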
Marburg entry inh: blocks Marburg virus binding to or entry into cells. Marburg virus pseudotyped entry inhibition, cell reporter; control for the full effect not named in the record; about a third of the inactives were read at about 46 µM. Potency, µM (doses to about 37.8 µM), for the others: top-dose activity change, negative = inhibition, most hits filed as inhibitors. 1.8% of 300,000 active. AID 540276; active = well fitted inhibition curve with a large enough effect; inconclusive = small, poorly fitted or top-dose-only effect, or effect the other way; inactive = flat fitted curve, though single readings scatter; tested in HEK293 cells; about a fifth of its hits are not listed in these tables; note: % is set by controls: 0 for no effect and ±100 for the full control effect; luciferase read-out
An asterisk follows results filed as active; ? = inconclusive; / = not tested or not shown; & = joins results of further samples; [ ] = another dose, or the depositor's remark. Unless noted, calls come from the whole dose curve; as a rule, active = well fitted curve in the direction sought with a large enough effect; inconclusive = small, poorly fitted or top-dose-only effect, or another doubt; inactive = no such curve, though single readings can be large; an effect the other way counts as inactive or inconclusive. Potency is the fitted concentration of half-maximal effect. Hits appear at their usual frequency; 4.6% or so of the library scored in one or more.

SMILES	Cruzain inh noDet	Cruzain Triton	Lassa entry inh	NS1 inh	StopGo reporter	SARS PLP yeast	RE007 growth inh	Marburg entry inh
O=C(NCc1ccc(F)cc1)C1C2C=CC3(CN(Cc4cccnc4)C(=O)C13)O2 (stereo not drawn)	2%	4.4%	9%	3%	-7%	-1%	9%	15%
CCOc1cc(-c2nc(-c3ccc(C)nc3OCC)no2)cc(OCC)c1OCC	11%	4.7%	-2%	4%	-2%	1%	-11%	-5%
O=S(=O)(Cc1ccccc1)NCC1CCCN(Cc2ccc(F)c(F)c2)C1 (stereo not drawn)	/	/	-3%[46.1 µM]	-3%	13%	0%	-8%	-29%[46.1 µM]
CCCC(=O)c1c[nH]c(C(=O)NCc2ccco2)c1	-7%	-0.5%	-19%	-8%	-10%	-4%	25%	12%
O=C1c2ccccc2C(=O)N1c1ccc(-c2nc3ccccc3o2)cc1	5%	3.7%	/	2%	/	1%	/	0%
C=C1SC(Nc2c(C)cccc2C)=NC12CCCCC2	/	/	?	2%	?	2%	-19%	?
CCN1CCN(C(=O)Nc2cccc3ccccc23)CC1	4%	-4.2%	-13%	-18%	-8%	-2%	-18%	14%
O=c1[nH]c2ccc(S(=O)(=O)NCc3ccccn3)cc2s1	3%	2.4%	17%	6%	5%	1%	-8%	?
O=C(c1ccccc1)c1ccc(N2CCOCC2)cc1	/	/	?	/	6%	/	-12%	?
Cc1csc(N(C(=O)c2ccc(S(=O)(=O)N(C)C)cc2)c2ccccc2)n1	3%	2.4%	?	8%	-14%	1%	14%	0%
c1ccc2c(CCNC3CCCCC3)c[nH]c2c1	/	/	9%	/	-6%	1%	-10%	?
O=C(NCCc1ccco1)C(=O)NCC1OCCCN1S(=O)(=O)c1ccc(F)cc1 (stereo not drawn)	/	/	6%[46.1 µM]	19%	-9%	5%	-6%	-2%[46.1 µM]
CCC(=O)Nc1ccc(NC(=O)Cc2ccccc2)cn1	-9%	5.0%	7%	-4%	11%	6%	12%	?
COc1ccc(C2=NC(c3ccncc3)=Nc3ccc(Br)cc3N2)cc1	11%	-3.2%	?	/	4%	/	/	-18%[46.1 µM]
O=C(Nc1ccc(F)cc1F)C1CCN(S(=O)(=O)c2ccc3[nH]c(=O)ccc3c2)CC1	-3%	-1.8%	1%[46.1 µM]	/	-21%	/	/	/
Cc1nc(Cc2nnc(SCC(=O)N3CC(=O)Nc4ccccc43)o2)cs1	/	/	5%[46.1 µM]	/	-7%	0%	-23%	1%[46.1 µM]
CCCCCOc1ccc(C(=O)NC(CCC)C(=O)O)cc1 (stereo not drawn)	22%	8.0%	5%	-72%	-13%	6%	12%	7%
CCOC(=O)Nc1ccc2c(c1)Cc1cc([N+](=O)[O-])ccc1-2	/	/	?	/	45%[activator]	/	?	3%
Cc1cc(Nc2cccc(F)c2)nc(-c2ccccc2O)n1	-11%	-9.1%	0%	-22%	/	-2%	-7%	?
COc1cccc(/C=N/n2c(=S)n(C)c3cc(C)c(C)cc32)c1OC	?	-1.0%	-6%	8%	-8%	2%	-5%	8%
NC(=O)/C(=C/c1ccco1)C(N)=S	/	/	24%	2%	-14%	1%	-8%	-18%
Cc1ccc(OCC(=O)c2cc(C)n(-c3ccccc3)c2C)c([N+](=O)[O-])n1	-25%	-7.1%	?	-2%	?	5%	-6%	?
N#CC(C(N)=O)=C1CCC2(CC1)OCCCCO2	2%	3.9%	8%	-5%	-18%	-1%	2%	19%
Cc1cc(OC(C)C(=O)NCc2cccnc2)c2c(C)cc(=O)oc2c1 (stereo not drawn)	/	/	/	-7%	-6%	-1%	-7%	/
O=C(O)CCCN=C1CCCc2ccccc2N1	-11%	3.5%	-1%	8%	13%	-4%	-6%	1%
COc1cccc(C(=O)Nc2nnc(S(=O)(=O)N(C)Cc3ccccc3)s2)c1	/	/	/	4%	0%	0%	-12%	/
COC(=O)c1ccc(NC(=O)CSC2=NC(=O)C(c3ccccc3)C(=O)N2)cc1 (stereo not drawn)	7%	-0.3%	4%	-40%	0%	5%	6%	?
O=C(COc1ccc([N+](=O)[O-])cc1)Nc1cc(C(=O)O)cc(C(=O)O)c1	/	/	-5%	/	-6%	-1%	-21%	-1%[14.2 µM]
O=C(COc1ccccc1[N+](=O)[O-])Nc1cc(-c2nc3cc(Cl)ccc3o2)ccc1Cl	21%	2.2%	?	/	40%[activator]	/	/	3%[46.1 µM]
FC(F)(F)COc1ccc(-n2ccnc2)nn1	/	/	9%	/	9%	0%	-16%	15%[46.1 µM]
CCc1ccc(CCC(=O)Nc2nnc(C)s2)o1	?	2.6%	-38%[14.3 µM]	-7%	0%	0%	8%	24%
Cc1ccc(C(=O)N2CCN(c3ccc(NC(=S)NC(=O)c4cccs4)cc3)CC2)cc1	/	/	?	18%	-24%	1%	46%	7.9µM*
NC(=O)c1nsc(C(=O)N(CC(=O)NCc2ccc(F)cc2)Cc2ccco2)c1N	3%	12%	-26%	-1%	-9%	-2%	2%	?
O=C1Nc2ccccc2/C1=C/c1cnc(-c2ccccc2)[nH]1	/	/	?	-1%	51%[activator]	-2%	-9%	15%
O=C(NCc1ccco1)C(c1ccccc1)N(C(=O)Cc1cccs1)c1cccnc1 (stereo not drawn)	/	/	-21%	/	4%	2%	4%	-11%[46.1 µM]
O=c1c2cccnc2[nH]c(=S)n1CCCN1CCN(c2ccccc2F)CC1	1%	-1.1%	?	-10%	0%	6%	-9%	-28%
CCOC(=O)c1sc(NC(=O)CS(=O)(=O)c2ccc(C)cc2)nc1C	/	/	?	3%	0%	-1%	-9%	?
Cc1c(Cl)c(=O)oc2cc(OCC(=O)NCc3cccs3)ccc12	-6%	-1.3%	-6%	16%	-8%	18%	-4%	-14%[46.1 µM]
CCn1ccc2c(OCC(=O)Nc3ccccc3C)cccc2c1=O	-15%	-6.7%	-26%[46.1 µM]	/	0%	/	/	/
COc1ccc(N2CCN(C(=O)CCCNC(=O)Cn3cnc4sc(C)c(C)c4c3=O)CC2)cc1	/	/	?	15%	?	-1%	-2%	0%[46.1 µM]
CN1CCS/C1=C/C=C1/SC(=S)N(Cc2ccccc2)C1=O	-20%	-7.9%	14%	25%	13%	14%	-7%	?
COc1ccc(-c2nc(Cn3c(=O)cc(C)c4c(C)nn(-c5ccccc5)c43)c(C)o2)c(OC)c1	-3%	-0.2%	-6%[46.1 µM]	/	-22%	/	/	/
Cc1c(N=C2N=C(NC(=O)c3cccs3)c3ccccc32)c(=O)n(-c2ccccc2)n1C	/	/	?	/	?	1%	23%	?
C=CCN(C(=O)c1csnn1)C(C(=O)NC1CCCCC1)c1ccc(C)cc1 (stereo not drawn)	/	/	4%[46.1 µM]	-3%	6%	0%	0%	?
O=C1N=C(N2C=CC(=C3C=CNC=C3)C=C2)/C(=C/N=NC(=O)c2ccccc2O)S1	/	/	/	18%	0%	1%	-16%	/
CC1(C)CNC(=O)c2sc(N3CCCCC3)nc2C1	-7%	-4.9%	15%	-1%	48%[activator]	3%	2%	29%
Cc1cc(Cl)ccc1NC(=O)Nc1c(C)n(-c2ccccc2)c(=O)n1C	-4%	1.7%	-8%	6%	6%	-4%	14%	-26%
CC(=O)NCCc1ccc(S(=O)(=O)N2CCOCC2)cc1	-1%	-2.7%	0%	2%	-10%	4%	20%	9%
O=C(Nc1ccc2cccnc2c1)c1ccc(Br)cc1	/	/	/	-6%	59%[activator]	-3%	-16%	/
CC1CCCN(CCCNC(=O)c2cc3c(Cl)nc4ccccc4c3s2)C1 (stereo not drawn)	4%	1.2%	?	/	-24%&-20%	1%	-3%	2.8µM*
COc1ccc(S(=O)(=O)N2CCSC2c2ccc(OC)c(OC)c2)cc1 (stereo not drawn)	7%	-0.3%	-28%	-79%	?	5%	-8%	2%
CCOC(=O)CNC(=O)CSc1cc(C)nc2ccc(OC)cc12	/	/	-14%	-6%	-6%	-1%	-18%	-12%[46.1 µM]
OC(COc1ccccc1)CN1CCN(Cc2ccc3c(c2)OCO3)CC1 (stereo not drawn)	/	/	29%[46.1 µM]	2%	-11%	1%	0%	12%[46.1 µM]
CCCc1cc(C(=O)Nc2cccnc2)no1	-8%	5.5%	/	6%	47%[activator]	-4%	-28%	/
Cc1[nH]c2ccccc2c1/C=N/NC(=O)c1cccc(S(=O)(=O)Nc2ccccc2Cl)c1	?	-4.3%	1%	?	-23%	13%	-2%	?
O=S(=O)(NCC(Nc1ccc(Cl)cc1)c1ccccc1)c1ccccc1 (stereo not drawn)	-26%&2%	-9.0%&-6.7%	?	-6%	-4%&-22%	-16%	/	?
CC(=O)c1cccc(NC(c2ccc(F)cc2)c2nnc(-c3ccccc3)o2)c1 (stereo not drawn)	-2%	-7.2%	-23%[46.1 µM]	/	?	/	/	/
Cc1cccc(C(=O)O/N=C/c2c(Cl)n(C)c3ccccc23)c1	-5%	-2.9%	2%	-2%	-19%	-4%	-8%	-19%
CN1C(=O)C(=O)N(c2cccc(C(F)(F)F)c2)C1=O	/	/	0%	/	-2%	/	10%	?
COc1ccc(N2CCN(C(=O)Cn3cnc4sc(C)c(S(=O)(=O)N5CCOCC5)c4c3=O)CC2)cc1	/	/	-1%	-8%	-1%	-17%	-5%	2%[46.1 µM]

New compounds follow:
SMILES	Cruzain inh noDet	Cruzain Triton	Lassa entry inh	NS1 inh	StopGo reporter	SARS PLP yeast	RE007 growth inh	Marburg entry inh
CCNS(=O)(=O)c1ccc(Br)c(OC)c1	5%	0.6%	5%	8%	54%[activator]	4%	-7%	1%
O=C(COc1ccc(-c2nnco2)cc1)N1CCN(S(=O)(=O)c2ccccc2)CC1	3%	-0.8%	2%	-8%	-7%	-1%	0%	-3%
COc1ccc(OC)c(C2/C(=C(\O)c3ccc(OC)c(Cl)c3)C(=O)C(=O)N2CCN(C)C)c1 (stereo not drawn)	-2%	-4.4%	-17%	1%	-2%	-4%	3%	?
O=C(N/N=C/c1nn(-c2ccccc2)cc1-c1ccccc1)c1ccncc1	?	-7.0%	?	1%	14%	11%	10%	-4%
